S aureus helic: blocks Staphylococcus aureus DNA helicase; 120,000 tested, 0.05% active; purified S. aureus helicase, fluorescence unwinding assay; about half of the hits fall short of the stated cut; inhibition, %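 (tested at about 80 µM)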;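 active = both duplicates at 50% or more, or one of them with a favoured structure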;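 note: 0% = mean of negative control wells and 100% = mean of positive control wells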
MgrA-DNA mod: alters Staphylococcus aureus MgrA binding to DNA. inhibition, %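 (about 10 µg/mL by stock and volumes)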. AID 602314. 84,000 tested, 0.13% active. fluorescence polarization;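 active = above 50% in either of two replicates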;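 note: 0% = protein plus DNA without compound and 100% = DNA alone without protein; higher means less MgrA bound to DNA so lower polarization; one replicate is shown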
* marks the source's active call; other numbers are inactive results; nt = no result given; & = joins results of further samples.

SMILES	S aureus helic	MgrA-DNA mod
CCOC(=O)c1ccc2c(c1)NC(CC(=O)Nc1ccc(F)cc1)C(=O)N2CC (stereo unspecified)	6	nt
CCCN(CCC)C(=O)C1Sc2nnc(C)n2NC1c1ccc(Cl)cc1 (stereo unspecified)	-14	nt
Clc1cc(Cl)c(Cl)c(Cl)c1Cl	nt	2.5
O=C(C1CCCN1S(=O)(=O)c1ccccc1)N1CCCCC1 (stereo unspecified)	15	1.2
O=C(O)c1cccnc1Br	3	nt
CCOC(=O)c1sc(-c2cccc(Cl)c2)nc1O	nt	0.0
N#Cc1cc(Sc2nc3ccccc3s2)c(-n2nnc3ccccc32)cc1C#N	7	-1.2
Cc1ccc(NC(=O)c2cc3ccccc3o2)c(C)c1	-8	-0.1
CC1CC(C)(C)NC(=S)N1CCC(=O)Nc1ccc(Cl)cc1 (stereo unspecified)	15	-1.1
Cc1ccc(S(=O)(=O)N2CCN(C(=O)C3C4C=CC(C4)C3C(=O)O)CC2)cc1C (stereo unspecified)	4	6.8
CC1c2ccsc2CCN1S(=O)(=O)c1ccccc1 (stereo unspecified)	nt	0.0
S=C(Nc1ccccc1)N1CCn2c(nc3ccccc32)C1	-6	nt
COC(CN1C(=O)C2C3C=CC(C3)C2C1=O)OC (stereo unspecified)	1	-0.2
C=CCN1CC(C(N)=O)Oc2ccccc21 (stereo unspecified)	-22	nt
CCc1c(-c2ccccc2)[nH]c2nc3c(c(=O)n(C)c(=O)n3C)n12	6	nt
Cc1ccc(C(=O)Cn2nnc(-c3ccccc3)n2)c(C)c1	-15	nt
O=C(CSC1=NCCS1)Nc1ccnc2ccccc12	1	-0.6
O=C(NCCn1ccc2ccccc21)c1ccc(S(=O)(=O)N2CCCCC2)cc1	-7	nt
Cn1c(=NC(=O)CS(=O)(=O)c2ccccc2)sc2ccccc21	-1	nt
COc1ccc(CSC2=C(C#N)C(=O)NC3(CCCCC3)S2)cc1	nt	1.1
Cc1ccc(-c2nn(C3OC(CO)C(O)C3O)c(=S)o2)cc1 (stereo unspecified)	6	-1.2
CC1CCCC(C)N1C(=O)CN1c2cccc3cccc(c23)S1(=O)=O (stereo unspecified)	2	nt
COC(=O)C1CSCN1S(=O)(=O)c1ccccc1 (stereo unspecified)	1	nt
CCc1ccc(C(=O)OCCN2C(=O)c3ccccc3C2=O)cc1	12	nt
COc1ccc(-c2n[nH]c(=S)n2/N=C/c2c(C)nn(-c3ccccc3)c2C)cc1OC	-4	-0.8
Cc1cc(C(=O)OCC#N)c2ccccc2n1	-5	nt
NC(=O)Cc1ccc2sc(-c3ccccc3)nc2c1	-19	nt
COc1cccc(CC(NC(C)=O)C(=O)NC2CCN(C(=O)C3CC3)CC2)c1OC (stereo unspecified)	-2	-1.7
COC(=O)Cc1nc(-c2ccc(Cl)cc2)sc1C	nt	-0.5
COc1ccc(-n2ncc(NC(=O)N3CCOCC3)c2C)cc1	nt	-0.2

Random excerpt: six entries already listed.
SMILES	S aureus helic	MgrA-DNA mod
CCc1ccc(C(=O)OCCN2C(=O)c3ccccc3C2=O)cc1	12	nt
Cc1ccc(C(=O)Cn2nnc(-c3ccccc3)n2)c(C)c1	-15	nt
Cc1cc(C(=O)OCC#N)c2ccccc2n1	-5	nt
COc1cccc(CC(NC(C)=O)C(=O)NC2CCN(C(=O)C3CC3)CC2)c1OC (stereo unspecified)	-2	-1.7
COc1ccc(-c2n[nH]c(=S)n2/N=C/c2c(C)nn(-c3ccccc3)c2C)cc1OC	-4	-0.8
O=C(CSC1=NCCS1)Nc1ccnc2ccccc12	1	-0.6

Next part:
SMILES	S aureus helic	MgrA-DNA mod
Clc1ccc(C2NCCc3sccc32)cc1 (stereo unspecified)	nt	0.5
COc1ccccc1N(C(C)=O)S(=O)(=O)c1ccc(Cl)cc1	-11	nt
N#Cc1ccc(C(=O)Nc2sc3c(c2C#N)CCC3)cc1	19	nt
COc1ccc(C2CC(=O)N(CC(=O)NC3CCCCC3)c3ccccc3S2)cc1OC (stereo unspecified)	19	-1.9
CC(C)CC(C(=O)n1nnc2ccccc21)N1C(=O)c2ccccc2C1=O (stereo unspecified)	-9	nt
Cc1ccc2c(COC(=O)C3=COCCO3)cc(=O)oc2c1	1	nt
CC(C)N(C(=O)CCCN1C(=O)c2ccccc2C1=O)c1ccccc1	1	nt
Cc1ccc(C)c(NC(=O)CN(C)C(=O)CC2OC(=O)c3ccccc32)c1 (stereo unspecified)	-2	nt
CCCCC(=O)c1c(C)cc(C)[nH]c1=O	-26	nt
Cc1cc(-c2ccccc2)nc(-c2ccccc2)c1C	-1	1.5
N#CC(C#N)=C(Nc1ccccc1)c1ccccc1	-11	-0.5
O=C(c1ccco1)N1CCN(Cc2ccccc2Br)CC1	8	0.5
Cc1ccc(C2=CC(=O)C=CC2=O)cc1	14	0.6
Cc1ccc(-c2noc(CN(C3CCCCC3)S(=O)(=O)c3ccccc3)n2)cc1	-10	2.4
Cc1oc(-c2ccccc2)cc1C(=O)Nc1cccc(/C=C\C(=O)O)c1	10	-2.5
O=S(=O)(Nc1nc2ccc(F)cc2s1)c1ccc(F)cc1F	-4	nt
Cn1cc[nH]c1=S	nt	1.1&0.8
FC(F)(F)c1ccn(Cc2n[nH]c(=S)o2)n1	-2	nt
O=C(O)CCCn1cc(NC(=O)c2ccc(Cl)cc2)cn1	8	5.0
O=C(CSc1ncc(C(F)(F)F)cc1Cl)N1CCN(S(=O)(=O)c2ccccc2)CC1	-15	nt
O=C1CC(c2ccco2)CC2=C1C(c1ccco1)N(C(=O)C(F)(F)F)c1ccccc1N2 (stereo unspecified)	-2	-0.7
Cc1ccc2cnn(CC(=O)NC3CCCCC3)c2c1	-13	2.5
COc1ccc(C=Nc2cc(C(F)(F)F)ccc2-n2ccnc2)cc1	-21	0.2
O=C(NCCN1CCOCC1)c1cc2n(n1)CCCN(Cc1ccc(Cl)cc1)C2=O	-2	nt
CCN(CC)OC(=O)Nc1c(-c2c(Cl)cccc2Cl)noc1C	nt	3.0
Cc1cc(NCCO)nc(-c2ccc(Br)cc2)n1	15	2.7
O=C(CCN1c2ccccc2Sc2ccccc21)NC1=NCCS1	-7	nt
Cc1cc2[nH]c(=O)c(=O)[nH]c2cc1S(=O)(=O)N1CCC(C)CC1	2	-1.4
Cc1oc2cc(O)ccc2c(=O)c1-c1nc2ccccc2[nH]1	-16	nt
C=C(C)Cn1c(Cc2ccccc2)nc2ccccc21	-1	-3.9
O=C(NCCCN1CCOCC1)c1cn(-c2ccccc2)nc1-c1ccccc1	-12	-2.1
CC(C)c1ccc(OCC(=O)N2CCC(C(N)=O)CC2)cc1	12	-2.2
CC(C)C(NC(=O)c1ccc(F)cc1)C(=O)Nc1cccnc1 (stereo unspecified)	-2	nt
COCCCNC(=S)N/N=C/c1ccccc1O	nt	1.4
Cc1cc2c(cc1S(=O)(=O)NCC1CCCO1)OCC(=O)N2 (stereo unspecified)	5	-0.5
CN(CC(=O)NC1CC1)c1ccccc1	-6	nt
O=C1NC(=O)/C(=C/C(=O)N2CCN(C(=O)/C=C3\SC(=O)NC3=O)CC2)S1	6	0.8
CC1(C(=O)O)CCC(C(=O)NNc2ncnc3ccccc23)C1(C)C (stereo unspecified)	10	nt
S=c1[nH]nc(-c2ccccc2)n1C1CCCC1	7	2.0
CN(C)/C=C1/Sc2ccccc2C1=O	-8	nt
CC12CCC(C1)C(C)(C)C2NCC(=O)N(c1ccccc1)C1CCCCC1 (stereo unspecified)	nt	-1.4
CC(=O)NC1=C(c2ccc(Br)cc2)C(=O)c2ccccc2C1=O	-14	-1.1
O=C(NCCc1ccccc1)c1sc(=S)n2c1[nH]c(=O)c1ccccc12	8	5.2
COC(=O)c1ccc(CN2CCCC(C)C2)cc1 (stereo unspecified)	1	-0.2
O=C(NCCC(=O)N1CCN(c2cccc(Cl)c2)CC1)NC12CC3CC(CC(C3)C1)C2	7	nt

Reformatted as comma-separated lines: entries from further up.
molecule,S aureus helic,MgrA-DNA mod
Cc1ccc(S(=O)(=O)N2CCN(C(=O)C3C4C=CC(C4)C3C(=O)O)CC2)cc1C (stereo unspecified),4,6.8
CC1c2ccsc2CCN1S(=O)(=O)c1ccccc1 (stereo unspecified),nt,0.0
S=C(Nc1ccccc1)N1CCn2c(nc3ccccc32)C1,-6,nt

Next entries.
SMILES	S aureus helic	MgrA-DNA mod
Cn1c2c(c3ccccc31)/C(=N/OC(=O)c1ccc(C(C)(C)C)cc1)CCC2	nt	3.3
FC(F)(F)c1cc(-c2ccc(Cl)cc2)n[nH]1	nt	-1.1
COc1ccc(C2CC(c3cccs3)=NN2C(=O)CS(=O)(=O)c2cn(C)c3ccccc23)cc1 (stereo unspecified)	-7	nt
N=Nc1[nH]c(N)c2ccccc12	-11	3.3
CCOC(=O)CC(=O)c1c[nH]c2ccccc12	11	-8.2
Cc1cc(C)nc(NC(=O)C(c2ccccc2)c2ccccc2)n1	4	3.0
O=C(Nc1ccccc1C(=O)Nc1ccccc1)c1cccs1	0	0.5
Cc1cc(=O)[nH]c2cc3c(cc12)C(C)(C)C(C)N3C (stereo unspecified)	-24	nt
Cn1c(C(C(=O)NCC2CCCO2)N(Cc2ccc(F)cc2)C(=O)Cn2nnc3ccccc32)nc2ccccc21 (stereo unspecified)	0	0.9
COc1ccc(S(=O)(=O)N2CCC(C)CC2)cc1	-2	4.4
CC(=O)Nc1ccc(C(=O)Cn2ncc(Cl)c(Cl)c2=O)cc1	5	nt
CCOc1cccc(NC(=O)c2cnccc2C(F)(F)F)c1	nt	0.4
O=C(Cn1cnc2ccccc2c1=O)Nc1ccc(S(=O)(=O)N2CCCC2)cc1	-1	0.8
CCC(c1n[nH]c(=S)o1)N(C)C (stereo unspecified)	-1	nt
CC(C)(C)NC(=O)CSc1nnc(NC(=O)Cn2cnc3ccccc3c2=O)s1	14	1.6
C(=N\c1nnc2nc[nH]n12)/c1ccco1	-3	2.4
COc1ccc(C2C(C#N)=C(N)OC3=C2C(=O)CC(C)(C)C3)cc1Cn1nc([N+](=O)[O-])c(Br)c1C (stereo unspecified)	nt	0.5
CCOc1ccc(Cn2nnc(-c3ccc(S(C)(=O)=O)cc3)n2)cc1OCC	-7	0.3
CCOC(=O)c1c(NC(=O)C23CC4CC(CC(C4)C2)C3)sc(C(=O)Nc2ccccc2F)c1C	nt	-1.5
O=C(c1ccccc1)N1CCN(C(=O)c2cc3ccccc3oc2=O)CC1	7	-1.0
COC(=O)c1cc2sc(Cl)cc2n1CC(=O)N(C)c1ccccc1	21	nt
CC(=O)N1CCN(/C(C)=C\C(=O)C(F)(F)F)CC1	-5	nt
Nc1sccc1C(=O)c1ccccc1	13	1.5
O=C(NNc1nc(CN2CCOCC2)nc2scc(-c3ccccc3)c12)c1cccc(S(=O)(=O)N2CCOCC2)c1	24	nt
CCn1nc(C)c(NC(=O)c2ccc(Cl)cc2)c1C(=O)OC	nt	0.4
Cc1ccc(C(CC(=O)NCCCN2CCCC2)N2Cc3ccccc3C2=O)cc1 (stereo unspecified)	-6	nt
Cc1nc(SCC(=O)O)c2oc3ccccc3c2n1	-6	1.7
CCCn1c(C(C)NC(=O)c2ccccc2)nc2ccccc21 (stereo unspecified)	-18	nt
CC(C)c1ccc(/C=C2\N=C(c3ccccc3)OC2=O)cc1	nt	-1.3
O=C(COC(=O)C1CC2CCCC(C1)C2=O)NCc1cccs1 (stereo unspecified)	-6	nt
Nc1nc2ncc(CNc3ccc(C(=O)N[C@H](CCC(=O)O)C(=O)O)cc3)nc2c(=O)[nH]1	nt	-2.6
Cc1ccccc1Nc1nc(N)nc(CN2CC(C)OC(C)C2)n1 (stereo unspecified)	9	nt
Cc1nnsc1-c1c(C(=O)Oc2ccccc2)c(C)nn1-c1ccccc1	nt	1.6
COc1cccc(C(=O)N=c2sc3cc(S(C)(=O)=O)ccc3n2C)c1	-2	nt
NC(=O)Cn1cnc2sc3c(c2c1=O)CCC3	2	11
O=C(CSc1nnc(-c2c[nH]c3ccccc23)o1)NCCC1=CCCCC1	-8	nt
CCC(C)c1ccc(NC(=O)CSc2nc(N)cc(=O)[nH]2)cc1 (stereo unspecified)	19	nt
CC1CC(C)CN(C(=O)c2ccc(Cl)cc2)C1 (stereo unspecified)	-1	-1.9
CCOC(=O)c1c(CSc2ccc(C)cc2)n(C)c2cc(Br)c(O)c(CN(C)C)c12	12	1.5
Cn1c(CC#N)n[nH]c1=S	nt	0.3
CCc1ccc(NC(=O)Nc2nnc(N3CCCC3)s2)cc1	0	-0.7
O=C(Cn1c(=O)c2sccc2n(CC(=O)Nc2cccc(F)c2)c1=O)NCCc1ccccc1	2	-1.6
COc1ccc(-c2noc(COC(=O)C3(c4ccc(Cl)cc4)CCC3)n2)c(OC)c1	-5	nt
COC(=O)C1=C(C(=O)c2ccccc2)C(c2ccccc2)n2nnnc2N1 (stereo unspecified)	14	nt
Cc1cc(-c2ccccc2)n2ncnc2n1	4	-2.3

Complete entries, quoted from the list. Values in the order: S aureus helic	MgrA-DNA mod
`Cc1ccccc1Nc1nc(N)nc(CN2CC(C)OC(C)C2)n1` (stereo unspecified) is listed as 9	nt
`O=C(CSc1nnc(-c2c[nH]c3ccccc23)o1)NCCC1=CCCCC1` is listed as -8	nt
`Cc1cc(-c2ccccc2)n2ncnc2n1` is listed as 4	-2.3

Next section
SMILES	S aureus helic	MgrA-DNA mod
O=C(Nc1ccc(-c2cnco2)cc1)c1ccccc1	nt	4.4
CCSc1nc(C)c2cc(OC)ccc2n1	12	1.2
O=C(COc1nncc2ccccc12)Nc1ccc(F)c(F)c1	-24	nt
COc1ccc(NC(=O)CS(=O)(=O)c2ccc3c(c2)S(=O)(=O)N=CN3)cc1	21	nt
O=C1CSC(N(CC(=O)N2CCc3ccccc32)Cc2ccccc2)=N1	-6	nt

High-throughput results: PubChem BioAssay, ICCB-Longwood Screening Facility, Harvard Medical School

These rows are one share of the data (hit frequency here may not be typical).
